Compound activity deposited in PubChem by National Center for Advancing Translational Sciences (NCATS).
AmpC inh no det: AmpC beta-lactamase inhibition, detergent-free assay. P00811. AmpC nitrocefin hydrolysis, absorbance 480 nm, no detergent; potencies from a single point are estimates. Potency, µM (series often up to 28.7 µM), inactives show top-dose activity change, negative = inhibition. 71,000 compounds, 1.8% hits. AID 585; active = falling curve, for most hits resting on a single point; inconclusive = weak or doubtful change; inactive = flat or rising curve; also: % of control where 0% means no effect; about half of the hits show no inhibition at the top dose; a quarter of the inactives give rising signals
Target sequence (P00811 whole entry, looked up): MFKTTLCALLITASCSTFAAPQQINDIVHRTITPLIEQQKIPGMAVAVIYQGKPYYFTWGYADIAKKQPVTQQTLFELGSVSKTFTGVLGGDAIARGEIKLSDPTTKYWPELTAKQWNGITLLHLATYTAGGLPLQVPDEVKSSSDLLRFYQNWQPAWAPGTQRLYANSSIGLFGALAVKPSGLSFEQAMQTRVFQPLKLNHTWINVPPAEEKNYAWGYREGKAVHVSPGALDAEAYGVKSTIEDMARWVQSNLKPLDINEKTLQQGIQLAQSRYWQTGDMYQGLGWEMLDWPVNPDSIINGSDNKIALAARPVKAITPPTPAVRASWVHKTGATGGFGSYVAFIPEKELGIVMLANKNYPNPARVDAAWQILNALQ
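Enzyme, pH 7.0 phosphate. Compound titrations were pre-incubated with AmpC for 15 min at room temperature before nitrocefin (stock 800 uM) addition; product formation was recorded at 480 nm every 20 s for 4 min.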
* = called active by the depositor; & = joins results of further samples; [ ] = another dose, or the depositor's remark. Potency is read from the fitted curve at half-maximal effect. This is a subset; count on the stated rates, not on these rows.

cpd	SMILES	AmpC inh no det
1	CC(CNC(=O)c1ccc(Br)o1)NC(=O)c1ccc(Br)o1 (centres undefined)	-4.4%
2	CC(=O)N1CCc2cc(S(=O)(=O)Nc3ccccc3N3CCN(C)CC3)ccc21	25.1%
3	CCOC(=O)c1oc2ccccc2c1NC(=O)c1cccs1	2.8%
4	O=C(CCn1c(=S)oc2ccccc21)Nc1ccc2c(c1)OCCO2	-17.9%
5	O=C(Cn1cccc1C(=O)c1ccccc1)NCc1ccccn1	9.2%
6	CC(CSc1nc2ccccc2s1)Cn1c(N2CCCC2)nc2c1c(=O)[nH]c(=O)n2C (centres undefined)	72.2%
7	O=C(c1cc2nc(-c3ccccc3)cc(-c3ccccc3)n2n1)N1CCN(C(=O)c2ccco2)CC1	124.4%
8	O=C(CCn1c(=O)oc2ccccc21)N(Cc1ccccc1)c1ccccn1	34.4%
9	Cn1c(SCc2c(F)cccc2Cl)nnc1-c1cnccn1	1.4%
10	C[C@]12CN(CC[N+](C)(C)C)C[C@]1(C)[C@@H]1CC[C@@H]2O1	-10.9%[5.75 µM]
11	CCC(C)(C)n1nnnc1CN(Cc1ccc(Cl)cc1)Cc1ccco1	37.9%
12	COc1cc(OC)cc(C(=O)Nc2ccccc2N2CCOCC2)c1	15.6%
13	c1ccc(-c2nnc3n2NC(c2ccc4c(c2)OCO4)S3)cc1 (centres undefined)	-15.4%
14	CCCCC(CC)C(=O)NCCCN1CCN(CCCNC(=O)C(CC)CCCC)CC1 (centres undefined)	38.0%
15	CC1(C)C2CCC1(C)C(OC(=O)CSc1nc(N)cc(=O)[nH]1)C2 (centres undefined)	8.5%
16	O=C(O)C[C@H]1OCC=C2CN3CC[C@]45c6ccccc6N[C@@H]4[C@H]1[C@H]2C[C@H]35	4.5%[5.75 µM]
17	O=C(NC1CCCCC1)N1CCCCCC1	6.4%
18	COc1ccc(C2C3=C(CCCC3=O)Nc3nc(C(F)(F)F)nn32)c(OC)c1OC (centres undefined)	8.6%
19	Cn1cccc1Cc1nnc(SCC(=O)NC2CCCC2)n1-c1ccc(F)cc1	3.98µM*[single pt active]
20	Oc1ccc(Cl)cc1Cc1ccccc1	-19.2%
21	COc1ccc(-c2cc(C(F)(F)F)nc(NCc3ccco3)n2)cc1OC	61.4%
22	COc1ccc(Br)cc1CNC(=O)C1CCC(=O)N1C(C)C (centres undefined)	18.0%
23	CCOC(=O)c1cnc(Nc2nc3ccccc3o2)nc1CN1CCN(c2ccccc2)CC1	-1.8%
24	CCOc1ccc(-c2nnc(SCC(=O)N3CCOCC3)o2)cc1	14.1%
25	O=C(O)[C@H]1CC=CC[C@@H]1C(=O)Nc1cccc(O)c1	-7.4%[5.75 µM]
26	Cc1nnc2sc(-c3ccc(-c4ccc(Cl)c(C(F)(F)F)c4)o3)nn12	93.3%
27	COc1cc(/C=N/n2cnnc2)ccc1OCC(=O)N1CCOCC1	-3.8%
28	CCN1CCCC1CNC(=O)CCNC(=O)c1cc(OC)c(OC)c(OC)c1 (centres undefined)	-11.2%
29	CC1CC(c2ccccc2)n2nc(NC(=O)CCc3ccccc3)nc2N1 (centres undefined)	-8.5%
30	COC(=O)C[C@](O)(CCCC(C)(C)O)C(=O)O[C@@H]1C(OC)=C[C@]23CCCN2CCc2cc4c(cc2[C@H]13)OCO4	76.9%
31	CCN1CCc2nc(NC(=O)c3ccc4c(c3)OCCO4)sc2C1	0.8%
32	Cc1cc(C)n2nc(SCc3ncc(-c4ccccc4)o3)nc2n1	71.8%
33	CCOC(=O)Nc1ccc2c(CN3CCN(S(=O)(=O)c4ccccc4)CC3)cc(=O)oc2c1	2.0%
34	Cn1c(SCC(=O)c2ccc(F)cc2)nnc1-c1ccccc1N	4.6%
35	CCOCCCNC(=O)C1CCN(c2cc(C)nc3c(-c4ccc(OC)c(OC)c4)c(C)nn23)CC1	130.2%
36	CCCNC(=O)CSc1nnc(-c2ccco2)n1C	-9.3%
37	O=C1CC(N2CCN(C3CC(=O)N(CCc4ccccc4)C3=O)CC2)C(=O)N1CCc1ccccc1 (centres undefined)	132.9%
38	COc1ccc(-n2c(=O)c(-c3cccs3)nc3cnc(N4CCN(C)CC4)nc32)cc1	122.0%
39	CCCS(=O)(=O)N1CCCC(C(=O)N2CCOCC2)C1 (centres undefined)	3.0%
40	CC(=O)c1c(N)[nH]c(-c2ccccc2)nc1=S	-10.2%
41	CCOc1ccc2[nH]c(S(=O)(=O)CC)nc2c1Cl	-4.7%
42	COC(=O)c1ccc2c(c1)N(Cc1ccccc1F)C(=O)c1ccccc1S2=O (centres undefined)	82.1%
43	O=C(O)c1cc(-c2cccnc2)nn1-c1ccccn1	-4.3%
44	CCc1ccc(N2CC(C(=O)NC3=NCCS3)CC2=O)cc1 (centres undefined)	4.7%
45	CCc1nnc2n1N=C(c1ccc(-c3ccc(Cl)cc3Cl)o1)CS2	-8.0%
46	Cc1cccc(OCc2nnc(SCC(=O)N(C(C)C)C(C)C)n2Cc2ccco2)c1C	123.1%
47	CN1C(=O)N(C)C(=O)C2(Cc3c(ccc4ccccc34)N(C)C2)C1=O	4.2%
48	C[C@@H]1O[C@H](O[C@@H]2C=C3CC[C@H]4[C@@H](CC[C@]5(C)[C@@H](c6ccc(=O)oc6)CC[C@]45O)[C@@]3(C)CC2)[C@@H](O)[C@H](O)[C@@H]1O	55.3%[12.8 µM]
49	CCOC(=O)c1sc(NC(=O)CSc2nnnn2-c2ccc(C)c(C)c2)nc1C	25.1%
50	O=C(Nc1nccs1)c1cc(S(=O)(=O)N2CCCCC2)ccc1Cl	-4.3%
51	N[C@@H](Cc1c[nH]c2ccccc12)C(=O)NCC(=O)O	-9.3%
52	CCC(C)NC(=O)c1cc(-c2ccccc2O)on1 (centres undefined)	-20.9%
53	Cc1nc(Cl)sc1C(=O)O	10.3%
54	CCn1c(SCc2cccc(C(F)(F)F)c2)nnc1-c1ccco1	32.7%
55	CCS(=O)(=O)N1CCC(C(=O)NCc2cccnc2)CC1	-2.2%
56	CC(=O)c1cccc(S(=O)(=O)N(Cc2cc3cc4c(cc3[nH]c2=O)OCCO4)CC2CCCO2)c1 (centres undefined)	72.4%
57	Cc1cc(Oc2ccccc2)nc(SCC(N)=O)n1	0.1%
58	CCOC(=O)N1CC=C2C(C#N)=C(N)C(C#N)(C#N)[C@H](c3ccc(OCC)c(OCC)c3)[C@H]2C1	27.8%
59	COC(=O)C1=CN(C(C)C)C=C(C(=O)OC)C1c1cccc(OC)c1	72.6%
60	N#CCCCN1C(=O)C(O)(CC(=O)c2ccc3c(c2)OCCO3)c2ccccc21 (centres undefined)	14.1%

Continuation.
cpd	SMILES	AmpC inh no det
61	CN(C)CCn1c(CO)nc2c1c(=O)n(C)c(=O)n2C	4.8%[5.75 µM]
62	Cc1nn2c(-c3ccccc3)nnc2c2ccccc12	59.1%
63	CC(C)CCN1CC(C(=O)NC(C)C)CC1=O (centres undefined)	-9.3%
64	CCOC(=O)CSc1nnc(CSc2nc3sc4c(c3c(=O)[nH]2)CCC4)n1C	2.2%
65	CCCS(=O)(=O)N1CCCC(C(=O)NCc2ccco2)C1 (centres undefined)	-0.5%
66	O=C(NCc1ccco1)C(c1ccccc1F)N(Cc1cccnc1)C(=O)Cn1nnc2ccccc21 (centres undefined)	13.3%
67	Cc1ccc(C2CC(=O)Nc3cc4c(cc32)OCCO4)s1 (centres undefined)	-4.2%
68	CCOC(=O)C(NCc1ccccn1)(NC(=O)c1cccnc1)C(F)(F)F (centres undefined)	-2.3%
69	O=C(Nc1cccc(C(=O)Nc2ccc(S(=O)(=O)O)c3cc(S(=O)(=O)O)cc(S(=O)(=O)O)c23)c1)Nc1cccc(C(=O)Nc2ccc(S(=O)(=O)O)c3cc(S(=O)(=O)O)cc(S(=O)(=O)O)c23)c1	-24.1%&-6.4%
70	O=C(CSc1n[nH]c(-c2ccccc2O)n1)N1CCCc2ccccc21	-11.7%
71	Cc1ccc2c3c1C1(C(=O)N3C(C)(C)CC2C)C(C#N)=C(N)Oc2cc(O)ccc21 (centres undefined)	22.3%
72	COc1ccc2nc3oc(C(=O)N4CCN(c5ccccc5F)CC4)cc3cc2c1	21.8%
73	CCCCOc1ncnc2c1[nH]c1ccc(F)cc12	-24.8%
74	CN=C(NC)SC1CC(=O)N(c2ccccc2)C1=O (centres undefined)	0.6%
75	CCOC(=O)c1ccc(NC(=O)Cn2cccc2)cc1	-9.1%
76	COc1ccc(NC(=O)N2CCn3c2nc2ccccc23)cc1	97.6%
77	O=[N+]([O-])c1ccc(S(=O)(=O)Cc2ccccc2)c2nonc12	-13.6%[5.75 µM]
78	Cn1c(=O)[nH]c(=O)c2c1nc(N1CCCC1)n2CC(O)COc1ccccc1 (centres undefined)	5.3%
79	CCN1C(=O)CC(N2CCC(Nc3ccc(OC)cc3)CC2)C1=O (centres undefined)	13.9%
80	COc1ccc2[nH]cc(CCNc3ncnc4ccc(-c5ccc6c(c5)OCO6)cc34)c2c1	-10.8%
81	COc1ccc(C(=O)N2CCC3(CC2)CN(c2ccccn2)C3)cc1	46.0%
82	COCCNC(=O)CSc1nc2ccccc2c(=O)n1CC1CCCO1 (centres undefined)	2.0%
83	O=C(COC(=O)C1(c2ccc(F)cc2)CCCC1)N1CCN(C(=O)c2ccco2)CC1	95.4%
84	O=c1[nH][nH]c(=O)c2cc(N3CCCC3)ccc12	-8.4%
85	C=CCN1CCc2c(cc(O)c(O)c2Br)[C@H](c2ccccc2)C1	-4.8%
86	CCCn1c(=O)c2[nH]c(-c3ccc(OCC(=O)NCCN)cc3)nc2n(CCC)c1=O	63.3%
87	CC(=O)C1=C(C)NC(SCC(=O)c2ccccc2)=C(C#N)C1CC(C)C (centres undefined)	-8.2%
88	O=C(CN1CCN(c2ccccn2)CC1)NC(=O)NC1CCCCC1	57.6%
89	O=C(O)CCc1nc(-c2cccs2)no1	2.2%
90	O=c1c2ccccc2nc(COc2ccccc2)n1/N=C/c1ccco1	-3.0%
91	CCOCC(=O)Nc1cc(C(=O)OC)ccc1C(=O)OC	21.1%
92	O=C1CC(c2cccs2)CC(O)=C1C=NCCN1CCNCC1 (centres undefined)	16.5%
93	O=c1c(-c2ccccc2)c(O)nc2ccccn12	-13.9%
94	Cc1nc(NCc2ccccc2)c2nc(-c3ccccc3)n(CCN(C)C)c2n1	89.9%
95	CCNC(=O)N1c2ccc(OCC)cc2C(C)=CC1(C)C	39.2%
96	Cc1cc(C)c(O)c(Cc2cccc(Cc3cc(C)cc(C)c3O)c2O)c1	-2.1%[5.75 µM]
97	COc1cccc(CNc2nc3ccccc3n2CCN2CCCCC2)c1	50.5%
98	O=C(Nc1ccc(OC(F)(F)F)cc1)C1=NCCN1	-10.7%
99	CCCNC(=O)c1c(C)cc(=O)oc1C	-1.7%
100	CCC1CCCCN1C(=O)CSc1nnc(CNC(=O)COc2ccc(Cl)cc2)o1 (centres undefined)	84.7%
101	FB(F)F	-4.3%
102	COc1cc(C2c3c(-c4ccccc4)n[nH]c3C(=O)N2c2ccccc2)ccc1O (centres undefined)	3.4%
103	Cc1ccc(NC(=O)C2CC=CCC2C(=O)N2CCCCC2)cc1 (centres undefined)	5.4%
104	Cc1ccc2cc3c(NC(=O)CC(C)C)nn(C)c3nc2c1	54.3%
105	O=c1c(-c2cccs2)nc2cnc(N3CCOCC3)nc2n1Cc1ccc(F)cc1	-3.5%
106	Cc1noc(C)c1-c1nccc(N2CCNCC2)n1	-8.8%
107	C[C@H]1C[C@H](C)C(=O)[C@@H]([C@H](O)CC2CC(=O)NC(=O)C2)C1	7.0%&-1.0%
108	CCOc1ccccc1NC(=O)c1c(NC(=O)CNCc2ccco2)sc2c1CCC2	-10.4%
109	O=C(C1CCCCC1)N1CCC(c2nc3c(nnn3Cc3ccccc3Cl)c(=O)[nH]2)CC1	117.4%
110	Cc1ccc(NC(=O)COC(=O)C2CCC(=O)N2)c(S(=O)(=O)N2CCOCC2)c1 (centres undefined)	4.5%
111	CN(C)Cc1ccccc1-c1cc(-n2ccnc2)ncn1	6.5%
112	COc1ccccc1C(=O)Nc1ccc(-c2nnc(SCC(=O)O)n2C)cc1	-7.0%
113	Cc1cn2nc(N)c3ccccc3c2n1	-10.5%
114	CCN(CC)C(=O)c1ccc(NC(=O)CSc2nnnn2-c2cc(OC)ccc2OC)cc1	63.9%
115	COc1ccc(C(=O)CSc2nnc(-c3ccc(S(=O)(=O)N4CCOCC4)cc3)o2)cc1	42.2%
116	Cc1ccc(CNC(=O)C2C3C=CC4(CN(Cc5cccnc5)C(=O)C24)O3)cc1 (centres undefined)	-4.8%
117	C=CCc1c(C)[nH]c2ccc(C)cc2c1=O	-8.8%
118	Cn1c(SCC(=O)Nc2cccc(O)c2)nnc1-c1ccc(S(=O)(=O)N2CCOCC2)cc1	0.7%
119	CCC1(c2ccccc2)NC(=O)N(CC(=O)Nc2cccc(C#N)c2)C1=O (centres undefined)	-12.7%
120	O=C(CSc1nnc(-c2cccnc2)n1Cc1ccccc1)N1CCOCC1	2.7%
121	CCOC(=O)C1CCCN(C(=O)CSc2nccn2C)C1 (centres undefined)	1.7%
122	CCOn1c(=O)c(-c2ccc(OC)cc2)[n+]([O-])c2ccccc21	-4.5%
123	CN(C(=O)c1ccc(=O)[nH]c1)C1(C(=O)NC2CCCCC2)CCCCC1	3.8%

Four entries from above in a different format:
#117 C=CCc1c(C)[nH]c2ccc(C)cc2c1=O
  AmpC inh no det: -8.8%

#118 Cn1c(SCC(=O)Nc2cccc(O)c2)nnc1-c1ccc(S(=O)(=O)N2CCOCC2)cc1
  AmpC inh no det: 0.7%

#119 CCC1(c2ccccc2)NC(=O)N(CC(=O)Nc2cccc(C#N)c2)C1=O (centres undefined)
  AmpC inh no det: -12.7%

#120 O=C(CSc1nnc(-c2cccnc2)n1Cc1ccccc1)N1CCOCC1
  AmpC inh no det: 2.7%
